Calb FLC – affects C. albicans growth with fluconazole | C. albicans CaCi-2 (fluconazole-resistant clinical isolate) + fluconazole, Alamar Blue growth, 48 h | growth inhibition, % (test concentration not listed) | 300,000 tested, 0.57% active | AID 1979;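 active = most replicates above 75%; inconclusive = exactly half above 75%; inactive = most below 75%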;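 note: all wells also contain fluconazole at 8 µg/ml as a sub-toxic cotreatment; 0% = median of DMSO wells and 100% = median of geldanamycin control wells; wells of about 8 µL received 7.5 nL stock; the first replicate is given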
Beta cell apopt – beta cell apoptosis inhibition; 300,000 tested, 0.8% active; INS-1E cytokine-induced death, ATP luminescence, 48 h; percent of positive-control rescue, neutral wells zero; protection from apoptosis, % (concentration not given with the values);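 active = all replicates at 75% or more, or half of them and the mean; inconclusive = half reach 75% but not the mean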;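 note: 0% = cytokine-treated negative control wells and 100% = positive control rescue; higher means more ATP so stronger rescue from cytokine killing; wells of about 40 µL received 100 nL stock; the first replicate is given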
A1 inh – inhibitors of the anti-apoptotic protein A1, read as caspase activation | 330,000 tested, 0.066% active | caspase activation, % (concentration not given with the values) | MEF A1-2A-BIM cells, Caspase-Glo 3/7 luminescence, 3 h; percent of clofoctol response, vehicle zero | AID 2462;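 active = over half of replicate activation scores above 10%, or exactly half above 10 with the replicate mean above 10; inconclusive = replicate mean below 10 yet half the replicates above 10; inactive = over half of replicates below 10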;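 note: wells of about 30 µL received 50 nL stock; many hits fall short of the cut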
LANA-H2B inh – blocks KSHV LANA binding to histone H2A/H2B. Q9QR71. cell-free LANA-H2A/H2B peptide, fluorescence polarization. inhibition, % (no concentration beside the values). 320,000 tested, 0.6% active. AID 2629; in the data active = inhibition mostly above about 10%, no sharp cut-off; inactive = mostly below about 6.7%;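 note: stock transfer was 7.5 nL into about 10 µL; 0% = median of vehicle wells and 100% = median of positive control wells; one replicate is shown; the record names a cut of 25% in any replicate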
UCH37 DUB inh – inhibitors of human deubiquitinating enzyme UCH37. purified proteasome/UCH37, Ub-AMC cleavage fluorescence. Q9Y5K5. 330,000 tested, 0.33% active. inhibition, % (concentration not given with the values). AID 588478;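 active = mean of two replicates above 20%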;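 note: 0% = compound-free wells with enzyme and 100% = wells lacking proteasome; stock transfer was 100 nL into about 20 µL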
Target sequence (Q9Y5K5 whole entry, looked up): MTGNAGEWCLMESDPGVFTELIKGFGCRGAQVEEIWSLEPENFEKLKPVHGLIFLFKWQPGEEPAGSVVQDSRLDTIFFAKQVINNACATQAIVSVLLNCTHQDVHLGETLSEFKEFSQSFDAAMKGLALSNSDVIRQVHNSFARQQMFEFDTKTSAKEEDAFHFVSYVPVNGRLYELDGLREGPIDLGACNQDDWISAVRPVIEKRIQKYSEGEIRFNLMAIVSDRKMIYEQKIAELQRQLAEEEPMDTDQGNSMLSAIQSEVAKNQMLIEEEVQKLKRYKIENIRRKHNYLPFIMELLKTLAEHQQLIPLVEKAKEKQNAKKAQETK
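system = Proteasome-associated human UCH37 deubiquitinase | amount = 0.15 nM proteasome as dispensed | medium = pH 7.4 Tris-HCl (50 mM) with ovalbumin, ATP-MgCl2, DTT | incubation = 30 min preincubation with enzyme, 25 min cleavage at room temperature | detection = AMC fluorescence 355/460 nm | read-out basis = percent inhibition | controls = no-proteasome and no-compound wells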
RanGTP-Impb inh – disruptors of Ran-importin-beta complex formation – biochemical, FRET, CFP-Ran, YFP-importin-beta, homogeneous, primary screen; 300,000 tested, 1.1% active; cell-free CFP-Ran/YFP-importin-beta FRET ratio; inhibition, % (no concentration beside the values); AID 2216;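 active = most replicates above 15%; inconclusive = exactly half above 15%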;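 note: 0% = DMSO wells and 100% = Ran loaded with GDP instead of GTP; wells of about 40 µL received 100 nL stock; the first replicate is given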
B2AR ag – human beta-2 adrenergic receptor agonism by FAP; 340,000 tested, 0.43% active; P07550; response, % (test concentration not listed); Am2.2-beta2AR cells, FAP receptor internalization, flow cytometry; reference of the scale not given here;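 active = response above a set limit, near 3 SD of response in nonfluorescent compounds, cut at about 42% in these data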;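 note: stock transfer was 100 nL into about 11 µL; a reference agonist was the positive control; negative values mostly stem from fluorescent compounds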
Target sequence (P07550 whole entry, looked up): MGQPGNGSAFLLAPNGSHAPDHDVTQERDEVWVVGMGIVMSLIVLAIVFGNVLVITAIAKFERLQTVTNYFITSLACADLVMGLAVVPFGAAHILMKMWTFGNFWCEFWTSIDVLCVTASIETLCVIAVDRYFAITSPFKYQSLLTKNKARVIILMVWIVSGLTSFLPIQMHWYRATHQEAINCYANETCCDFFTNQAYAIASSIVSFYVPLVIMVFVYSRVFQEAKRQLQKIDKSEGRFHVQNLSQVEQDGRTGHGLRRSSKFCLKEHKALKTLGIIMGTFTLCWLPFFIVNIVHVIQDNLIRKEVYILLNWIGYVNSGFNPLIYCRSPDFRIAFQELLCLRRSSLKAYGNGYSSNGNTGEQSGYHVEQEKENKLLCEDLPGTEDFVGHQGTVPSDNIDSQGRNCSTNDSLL
T cruzi inh – T. cruzi replication inhibition | T. cruzi beta-gal in NIH3T3, luminescence, 90 h | inhibition, % (concentration not given with the values) | 300,000 tested, 1.4% active;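 active = mean inhibition across valid replicates above about 55%, limit read from the data; inconclusive = mean below that limit but half or more replicates reach it; inactive = mean below it, under half of replicates reach it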;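 note: signal also drops with host cell toxicity which is not excluded here; 0% = plate median of DMSO wells and 100% = zero luminescence signal; higher percent means less beta-gal luminescence so fewer parasites; stock transfer was 50 nL into about 50 µL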
Numbers without * were called inactive; ? = inconclusive; . = no result given. Rows are unselected. Share with any hit: about 4.3%.

Compound	Calb FLC	Beta cell apopt	A1 inh	LANA-H2B inh	UCH37 DUB inh	RanGTP-Impb inh	B2AR ag	T cruzi inh
COc1cc(OC)c(OC)cc1/C=N/n1c(-c2n[nH]c3c2CCC3)n[nH]c1=S	-1	0	0.4	-1.3	.	-1.1	14	-14
Cc1ccc(CNC(=O)c2ccc[nH]2)cc1	-24	-2	-1.4	1.0	0.5	0.4	-5	-4
COc1ccc(Cc2nc(-c3cccc(C)c3)no2)cc1	-22	1	-4.0	4.8	7.2	8.4	0	7
O=C(C[C@H]1C/C=C\C[C@@H](Cc2ccc(F)cc2)C(=O)O[C@@H](c2ccccc2)CNC1=O)NCCO	.	-3	1.9	4.3	3.3	.	-7	.
COc1cccc(CN(Cc2ccco2)S(=O)(=O)c2ccc(S(=O)(=O)NCc3ccccc3)cc2)c1OC	-8	16	-0.8	-3.5	0.2	-1.0	4	.
CC1CCCCC12NC(=O)N(CC(=O)Nc1ccc3c(c1)OCCCO3)C2=O (stereo unspecified)	.	-5	0.3	-0.8	3.3	.	0	.
COc1ccc(Cc2nc3ccc(C(=O)N(C)C(C)c4ccon4)cc3o2)cc1 (stereo unspecified)	2	1	-0.1	-2.6	0.1	-2.6	2	-3
COc1ccccc1-c1nnc(SCC(=O)N2CC(C)CC(C)C2)o1 (stereo unspecified)	-8	-4	0.4	1.9	3.7	-1.9	-5	-1
Cc1ccc(NC2OC(C(O)CO)C(O)C2O)cc1[N+](=O)[O-] (stereo unspecified)	-5	-5	0.0	-1.6	2.5	3.6	-2	-6
O=C(NN=C1CCCC1)c1ccc(O)cc1O	-7	-4	0.5	5.0	-8.6	2.7	0	14
O=C(/C=C/c1ccco1)OCC(=O)N1CCCCC1	.	-3	-0.1	-3.8	3.8	.	0	.
COc1ccc(C(=O)CN2C(=O)C(C)(C)Oc3ccc(C(=O)N4CCCCCC4)cc32)cc1	1	.	0.0	-2.9	1.1	-2.5	14	3
CNC(=O)c1cc2c(cn1)[nH]c1ccccc12	.	-1	0.2	6.3	-22	-0.8	-2	3
COc1ccc(/C=C/C(=O)NC(=S)Nc2ccc(S(N)(=O)=O)cc2)cc1	1	-10	1.5	-0.2	2.2	1.4	-1	-18
O=C(N/N=C(\CC(=O)c1cccs1)C(F)(F)F)c1ccncc1	4	-9	-0.3	-5.8	.	3.6	8	0
O=C(Nc1ccnn1C1CCN(Cc2cccc(F)c2F)CC1)C1CCCC1	0	0	2.5	-2.4	3.1	0.2	-5	1
O=C(COC(=O)c1cc(Cl)ccc1O)NCC1CCCO1 (stereo unspecified)	2	-3	-0.2	.	-12	1.6	1	-10
OCCNCc1cc(Br)ccc1OCc1ccccc1Cl	-4	18	0.1	-0.6	0.5	6.2	11	-3
Cc1cc(NC(=O)c2cccs2)n(-c2ccccc2)n1	11	-5	-0.3	3.9	1.7	0.4	6	-24
COc1ccc(C(=O)NC(CO)c2nnc(SCc3ccc(Cl)c(Cl)c3)n2C)cc1 (stereo unspecified)	-1	-2	-0.5	2.8	2.0	-3.2	7	9
CSc1ncccc1C(=O)Nc1nccs1	0	1	0.2	-1.0	6.2	0.8	-6	6
CS(=O)(=O)Nc1ccc2c(c1)ncn2CCc1ccccc1	-12	1	0.5	1.4	0.4	8.1	-3	-4
CSc1cccc(NC(=O)c2cc(S(=O)(=O)N3CCCC3)cn2C)c1	-10	0	0.9	2.0	6.7	-1.3	4	-5
COc1cccc(NC(=O)COC(=O)COc2ccccc2[N+](=O)[O-])c1	-5	3	-0.3	0.6	4.6	0.2	-2	-12
CCOC(=O)c1cc(NC(=O)c2cnccn2)cc(C(=O)OCC)c1	21	-14	-0.4	0.4	4.3	0.3	-7	11
N/C(=N\OC(=O)CCC1CCCC1)c1ccc(Br)cc1	.	1	0.2	-3.5	-1.3	.	2	-8
O=C(c1ccccc1Oc1ccccc1)N1CCN(c2ccccc2)CC1	0	-3	0.6	0.4	1.6	1.2	6	-2
O=C(Cc1ccc(S(=O)(=O)N2CCOCC2)s1)NCCOc1ccccc1F	-3	-4	0.1	2.3	1.5	0.7	0	6
Oc1oc(-c2ccccc2Br)nc1C=Nc1ccc(Br)cn1	-4	-3	-0.3	6.0	0.3	2.8	-2	7
COC(=O)c1ccc(COc2ccc(-c3nnn(CC(=O)NC(C)(C)C)n3)cc2)cc1	2	5	-0.4	-1.3	1.9	2.1	2	-5
COC(=O)COc1ccc(-c2nccc(-c3ccc(Br)cc3)n2)cc1	1	-8	-0.2	-2.8	7.7	-1.1	14	-2
COc1ccc(NC(=O)CCS(=O)(=O)c2cc3c(cc2C)NC(=O)CO3)cc1	-4	3	0.1	-1.8	4.7	-0.6	-4	-3
Cc1ccccc1NC(=O)N1CCN(S(=O)(=O)c2ccccc2)CC1	-1	-4	-0.4	0.7	-1.1	-0.4	1	-19
COc1ccc(S(=O)(=O)N2CCN(c3cnccn3)CC2)cc1	.	-3	0.6	0.1	-15	.	-6	.
CCN(C(=O)c1cc(Cl)ccc1OC)c1ccccc1	0	0	1.2	2.3	3.8	5.2	5	6
Cc1ccc2nc3c(nc2c1C)CCCC3	22	0	0.3	1.5	-35	3.5	-3	-6
O=C1CC(N2CCN(C/C=C/c3ccccc3)CC2)C(=O)N1Cc1cccs1 (stereo unspecified)	-22	-12	0.4	11	-1.1	-0.3	-2	2
COc1ccc(N(C(=O)CNC(=O)c2ccco2)C(C(=O)NCC2CCCO2)c2ccccc2)cc1OC (stereo unspecified)	5	-2	0.4	-2.4	6.8	-1.1	-6	-10
COC(=O)c1ccc(OCc2cc(=O)n3ccsc3n2)cc1	23	0	-4.4	-4.0	-0.8	1.7	3	-14
O=C(c1ccco1)N1CCN(c2nc(-c3ccc(F)cc3)cs2)CC1	-6	1	1.1	2.7	0.0	0.0	2	0
COc1ccc(-n2nc(C)c3onc(C)c3c2=O)cc1	-3	-13	-1.0	1.0	-0.2	-2.7	5	-4
CCOc1ccc(N(CC(=O)Nc2cccc(OC)c2)S(=O)(=O)c2c(C)noc2C)cc1	1	11	0.7	1.1	7.4	-3.1	16	1
O=S(=O)(c1cccc(F)c1)N1CCN(c2ncnc3scc(-c4ccc(F)cc4)c23)CC1	4	32	0.7	4.3	-1.9	-1.6	7	50
COc1ccc(Oc2nnc(-c3ccccc3)cc2C#N)cc1	17	-10	-0.3	9.0	1.1	6.9	10	-7
COc1cccc(CNC(=O)COC(=O)c2cc(Br)c(Br)s2)c1	.	-5	-0.6	-5.5	3.8	.	-5	.
COC(=O)[C@H](CCSC)NC(=O)c1cc2c(cn1)[nH]c1ccccc12	-20	-17	0.5	1.5	-41	1.5	4	2
COc1ccccc1C(OC(=O)c1ccco1)C(=O)NC(C)(C)C (stereo unspecified)	-4	-4	0.3	-3.4	3.4	-0.3	0	5
CCOC(=O)C1CCCN(CCC(=O)Nc2cc(C)cc(C)c2)C1 (stereo unspecified)	-12	-3	1.2	4.6	-0.5	3.4	2	10
CN(C)S(=O)(=O)c1ccc(Cl)c(C(=O)NNC(=O)Cc2nc3ccccc3n2C)c1	.	-2	-0.1	-8.0	-3.3	.	-2	.
CC1CCCCC1NC(=O)CSc1nnc(COc2ccccc2Cl)o1 (stereo unspecified)	-10	-1	-0.4	-0.1	-1.8	1.9	-6	8
COc1ccc(N2CCN(CCCNC(=O)CN3CCN(Cc4ccccc4C)C3=O)CC2)cc1	-1	-3	1.1	0.6	0.3	-0.5	-3	3
COc1ccc(C(=O)NC2CCSc3ccccc32)cc1 (stereo unspecified)	5	3	-1.7	2.0	2.2	-1.5	-5	4
Cc1oc(-c2ccccc2)nc1CS(=O)CC(=O)NC1CCCC1 (stereo unspecified)	2	-8	.	-3.9	1.4	-5.3	-3	-15
CC(=O)Nc1cccc(OCC(=O)NC(C)c2ccc3ccccc3c2)c1 (stereo unspecified)	3	-1	-0.6	-1.8	3.3	-3.3	-11	6
[O-]/C(=C(\C(=S)Nc1ccc(SC(F)F)cc1)[n+]1ccccc1)c1ccc(Cl)cc1Cl	-7	35	-0.3	-11	4.5	0.4	1	23
COc1ccc(C2=NOC(Cn3nc(-c4ccccc4)cc3C(=O)NCc3cccc(C(F)(F)F)c3)C2)cc1 (stereo unspecified)	.	-4	0.1	-5.0	-0.2	.	1	.
CN(C)c1ccc(CNC(=O)CCS(=O)(=O)c2ccc3c(c2)oc(=O)n3C)cc1	-2	5	-1.7	0.3	1.3	-0.1	-12	-14
Cc1ccc(/C=N/NC(=O)Cn2nc(C)c(Br)c2C)o1	-10	-5	-0.3	-1.7	.	?	5	-16
CC(=O)Nc1ccc(S(=O)(=O)N(C)CC(=O)OC(C)C(=O)N(C)C2CCCCC2)cc1 (stereo unspecified)	-3	-2	-0.5	2.6	.	?	2	-4
O=[N+]([O-])C(=c1ccc2c(c1)N1C3=C(CCCC3)CC3CCCCC31N=2)[N+](=O)[O-] (stereo unspecified)	5	.	6.4*	2.7	.	5.9	.	18

5 compounds picked at random from the list so far:
Compound	Calb FLC	Beta cell apopt	A1 inh	LANA-H2B inh	UCH37 DUB inh	RanGTP-Impb inh	B2AR ag	T cruzi inh
O=C(Cc1ccc(S(=O)(=O)N2CCOCC2)s1)NCCOc1ccccc1F	-3	-4	0.1	2.3	1.5	0.7	0	6
Cc1ccccc1NC(=O)N1CCN(S(=O)(=O)c2ccccc2)CC1	-1	-4	-0.4	0.7	-1.1	-0.4	1	-19
CCN(C(=O)c1cc(Cl)ccc1OC)c1ccccc1	0	0	1.2	2.3	3.8	5.2	5	6
CCOC(=O)C1CCCN(CCC(=O)Nc2cc(C)cc(C)c2)C1 (stereo unspecified)	-12	-3	1.2	4.6	-0.5	3.4	2	10
O=S(=O)(c1cccc(F)c1)N1CCN(c2ncnc3scc(-c4ccc(F)cc4)c23)CC1	4	32	0.7	4.3	-1.9	-1.6	7	50

Following part:
Compound	Calb FLC	Beta cell apopt	A1 inh	LANA-H2B inh	UCH37 DUB inh	RanGTP-Impb inh	B2AR ag	T cruzi inh
CCOc1ccccc1CNc1ccc(O)cc1	14	.	.	.	-15	5.3	2	-12
CCN1CCN(CCOc2ccc(Cl)cc2)CC1	-3	-1	-0.4	-1.0	1.7	1.8	-3	67*
O=C(NCc1ccco1)C1CCN(S(=O)(=O)c2ccccc2C(F)(F)F)CC1	.	3	1.2	-3.5	2.9	.	-6	.
Cc1ccccc1CNC(=O)C(=O)NCC1OCCCN1S(=O)(=O)c1cccs1 (stereo unspecified)	6	-1	0.2	-0.1	0.4	1.0	-2	3
CCC(=O)N(Cc1ccco1)Cc1cc2cccc(C)c2n2nnnc12	2	-6	1.0	-0.2	-3.1	-0.3	2	17

Source: PubChem BioAssay
